# gsp agonist – gsp mutant agonism; gsp mutant cells, cAMP HTRF, 30 min; control for the full effect not named in the record; Potency, µM (top dose mostly 76.9 µM), for the others: top-dose activation (cAMP increase), hits mostly activators; 0.13% of 340,000 active; active = well fitted activation curve with a large enough effect; inconclusive = small, poorly fitted or top-dose-only effect, or another doubt; inactive = no such curve, though single readings can be large or run the other way; cell line not stated here;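 also: phosphodiesterase inhibitor Ro 20-1724 added with compounds to block cAMP breakdown; potency is read from the fitted curve at half-maximal effect; nearly all actives have a fitted effect of over 60% in size; about a fifth of the inactives were tested at one dose only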
#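 Cells in DMEM/10% FBS with G418 were pretreated with compounds in DMSO plus […] (300 uM stock) for 30 min at 37C. cAMP was measured by HTRF (cAMP-d2 plus anti-cAMP antibody-K) after 30 min at room temperature.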
# PINK1 expr mod – changes PINK1 expression | PINK1 immunofluorescence, high-content cytometry, 24 h | Potency, µM (highest dose often 76.6 µM), for the others: at the highest dose activation (PINK1 increase), usual class: activators | 0.2% of 410,000 active | AID 624263; active = well fitted activation curve with a large enough effect; inconclusive = small, poorly fitted or top-dose-only effect; inactive = flat fitted curve, though single readings scatter; cell line not stated here;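 also: potency is read from the fitted curve at half-maximal effect; % of control where 0% means no effect; nearly all actives have a fitted effect of over 65% in size; a mitochondrial uncoupler was the plate control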
#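 Readout is PINK1 immunofluorescence, quantified alongside mitochondrial, cell and nuclear markers by laser-scanning microplate cytometry. Cells from a stable line were exposed to compound titrations (5 concentrations) for 24 hours, with CCCP controls.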
# D2 ag – activates the human D2 dopamine receptor. 0.084% of 360,000 active. P14416. DiscoveRx PathHunter D2 beta-arrestin, luminescence, 90 min; 100% = 57 uM dopamine signal. activation, % (no concentration beside the values); in the data active = activation above about 40%; inconclusive = about 15% to 40%; inactive = below about 15%; also: compound concentration not given in the record; the text of the record calls up to 30% inactive
# Target sequence (P14416 whole entry, looked up): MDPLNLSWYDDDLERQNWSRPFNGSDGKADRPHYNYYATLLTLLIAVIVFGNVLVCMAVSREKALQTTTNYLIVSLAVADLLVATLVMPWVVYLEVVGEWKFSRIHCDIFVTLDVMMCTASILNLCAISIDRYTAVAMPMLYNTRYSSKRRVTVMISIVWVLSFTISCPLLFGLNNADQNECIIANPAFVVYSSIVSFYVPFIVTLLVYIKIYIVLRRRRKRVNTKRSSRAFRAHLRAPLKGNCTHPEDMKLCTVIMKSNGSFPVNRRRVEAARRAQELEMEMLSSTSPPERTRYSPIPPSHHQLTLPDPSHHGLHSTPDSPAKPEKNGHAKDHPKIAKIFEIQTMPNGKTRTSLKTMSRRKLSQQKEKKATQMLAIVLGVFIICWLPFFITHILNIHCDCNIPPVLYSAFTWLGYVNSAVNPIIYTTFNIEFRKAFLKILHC
#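 Agonist mode: compounds alone added to overnight-plated D2 PathHunter cells for 90 min at 37 C, with 57 uM final dopamine (EC100) defining full response. Beta-arrestin recruitment detected by chemiluminescent reagent, read after 1 h at ambient temperature.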
# Menin MLL FP FL – inhibitors of human menin-MLL interaction, wild-type MLL peptide; Fluorescence polarization, fluorescein-MLL peptide displacement from menin; AID 1766; FP activity change, % at 61.4 µM; 290,000 tested, under 10 active; inconclusive = falling polarisation curve, or a change in total fluorescence; inactive = total fluorescence flat and polarisation flat or rising; no compound was filed as active; the % refers to the polarisation; negative = inhibition;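 also: % of control where 0% means no effect; inhibitors lower the polarisation; unlabelled MLL peptide was the positive control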
# ClpP mod – qHTS Assay for Activators of ClpP; ATP-dependent Clp protease proteolytic subunit (Bacillus subtilis (strain 168)), P80244; purified B. subtilis ClpP, FRET peptide cleavage, 20 min; Potency, µM (highest dose often 57.5 µM), for inactives: at the top dose activity change, negative = active; 1.9% of 340,000 active; AID 651965, 2013; active = well fitted falling curve with a large enough effect; inconclusive = small, poorly fitted or top-dose-only effect; inactive = no such curve, though single readings can be large or run the other way; also: potency is read from the fitted curve at half-maximal effect; the source files actives as falling curves though it sought activators and does not explain the sign; nearly all actives have a fitted effect of over 65% in size; many hits overshoot -100%
# Target sequence (P80244 whole entry, looked up): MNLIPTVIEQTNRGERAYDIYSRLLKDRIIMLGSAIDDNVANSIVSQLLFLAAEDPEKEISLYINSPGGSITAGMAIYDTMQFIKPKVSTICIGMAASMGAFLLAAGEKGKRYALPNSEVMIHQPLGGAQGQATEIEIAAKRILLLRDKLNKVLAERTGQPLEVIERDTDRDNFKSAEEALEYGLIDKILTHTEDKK
#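 ClpP 10 microg/mL final, pH 8 Tris/KCl buffer with BSA, glycerol, Tween-20; compound pinned in; FRET-FV substrate; RT 20 min; Ex320/Em430; ΔFRET vs ADEP 5.8 microM, DMSO, no enzyme.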
# Sfp PPTase inh – inhibitors of Bacillus subtilis Sfp phosphopantetheinyl transferase | Q9F4F7 | Biochemical Sfp PPTase activity, qHTS | Potency, µM, for inactives: max response, negative = inhibition, hits mostly inhibitors | 3.5% of 310,000 active | AID 1490; active = well fitted inhibition curve with a large enough effect; inconclusive = small, poorly fitted or top-dose-only effect, or another doubt; inactive = no such curve, though single readings can be large or run the other way;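 also: the enzyme is Sfp with the accession as filed and its product quenches rhodamine fluorescence; potency is read from the fitted curve at half-maximal effect; 0% = enzyme reaction without inhibitor and -100% = no enzyme wells; top concentration of the series not given in the record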
#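 Fluorescence-quenching assay: 15 nM Sfp-PPTase preincubated 15 min at room temperature with compound, then 5 uM rhodamine-CoA and 12.5 uM BHQ-2-labelled YbbR peptide added. Fluorescence (ex 525/em 598 nm) read at start and after 30 min; difference gives rate.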
# gsp antag – antagonizes gsp, the McCune-Albright syndrome mutation; gsp-mutant cells, cAMP HTRF, 30 min; control for the full effect not named in the record; Potency, µM (doses to about 76.9 µM), for the others: top-dose activity change, negative = inhibition, actives largely listed as inhibitors; 0.4% of 340,000 active; AID 624288; active = falling curve of any shape with a large fitted effect; inconclusive = falling curve, mostly with a smaller effect; inactive = flat or rising curve; cell line not stated here;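 also: intracellular cAMP measured with PDE inhibitor Ro 20-1724 present during compound exposure; potency is read from the fitted curve at half-maximal effect; % is scaled to controls: 0 for no effect and ±100 for the full control effect; nearly all actives have a fitted effect of over 65% in size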
#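 G418-selected cells were plated in DMEM/10% FBS for 16-24 h at 37C, then treated with compounds plus the PDE inhibitor […] (300 uM solution added) for 30 min at 37C. Intracellular cAMP was measured by HTRF after 30 min lysis at room temperature.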
# An asterisk follows results filed as active; ? = inconclusive; / = not tested or not shown; & = joins results of further samples; [ ] = another dose, or the depositor's remark. An unsorted share of the library (roughly 5.1% active in at least one column).
SMILES,gsp agonist,PINK1 expr mod,D2 ag,Menin MLL FP FL,ClpP mod,Sfp PPTase inh,gsp antag
CCCCCc1cc(=O)oc2c(C(CCN3CCCCC3)c3cc(OC)c(OC)c(OC)c3)c(OC)cc(OC)c12 (stereo unspecified),-5%,-1.1%,1.1,0.0,-7.5%,79µM*,3%
Cc1cccc(-c2nc3c(c(SCC(N)=O)n2)CCCC3)c1,-24%,-0.1%,-1.1,-0.4,-1.3%,1%,-21%
CCOC(=O)NN1C(=O)c2ccccc2NC1c1ccc(OC)cc1OC (stereo unspecified),?,-1.7%,-18,1.7,?,13%,2%
CC(C)NC(=O)Cn1c(SCC(=O)NC2CCCC2)nc2ccccc21,31%[15.4 µM],2.6%,-3.0,-0.4,-1.2%,10%,-9%
Cc1ccc(C(C(=O)NC(C)(C)C)N(Cc2ccco2)C(=O)Cn2nnc(-c3cccs3)n2)cc1 (stereo unspecified),-51%[inhibitor],5.9%,0.0,3.1,25µM*,5%,?
C=CCn1c2ccccc2c2n[nH]c(=S)nc21,4%,-1.3%,-8.6,-0.6,-3.6%,40µM*,-2%
COc1ccc(Nc2cc(C(=O)NCCCN3CCOCC3)c3ccccc3n2)cc1OC,-32%[inhibitor],-1.5%,-5.6,0.5,2.8%,6%,-18%
COc1ccc2nc3n(c(=O)c2c1)-c1cc2ccccc2cc1C(=O)NC3Cc1ccccc1 (stereo unspecified),-1%,7.1%,2.0,/,5.6µM*,/,/
CCCCCn1c(-c2ccco2)nc2nc3ccccc3nc21,30%,-2.3%,-2.1,12,49%,?,-3%
O=C(COC(=O)c1ccc(O)cc1O)NC1CC1,-4%,1.5%,-2.1,/,0.1%,/,-3%
COc1ccc2nc3c(c(-c4ccccc4)c2c1)CCC3,6%,2.0%,-4.2,0.2&-4.8,3.4%,-3%&-18%,-5%
CC1CCCN(c2c([N+](=O)[O-])c(=O)oc3ccccc23)C1 (stereo unspecified),-5%,3.3%[38.3 µM],-3.3,4.5,0.0%,21%,6%
O=c1[nH]ncc(N2CCCCC2)c1Cl,13%,-0.7%,3.1,5.0,1.2%,10%,9%
COc1ccc(CNC(=O)C2CCCN2S(=O)(=O)c2ccc(Cl)cc2)cc1 (stereo unspecified),9%,-2.2%[38.3 µM],-2.3,0.0,-0.9%,10%,-6%
Cc1cc(C)c(S(=O)(=O)N2CCN(c3ccc([N+](=O)[O-])c(-n4nc(C)cc4C)c3)CC2)c(C)c1,12%,-0.3%[38.3 µM],-2.8,1.6,0.6%,-8%,-8%
CC(C)[C@@H]1CC[C@@H](C)C[C@H]1OC(=O)C[n+]1cc(-c2ccc(Cl)cc2)n2c1CCCCC2,11%[15.4 µM],?,-1.0,1.7,/,-7%,-7%
Nc1nc(SCC(=O)NCCCO)nc2sc3c(c12)CCC3,5%,-3.9%[38.3 µM],0.3,-1.8,-8.6%,19%,6%
Cc1ccccc1OCC(=O)Nc1ccc2c(c1)OCCO2,-10%,1.4%,-3.9,3.8,-1.8%,-1%,-3%
CCOC(=O)C1=CCN(S(C)(=O)=O)C1c1ccc(C)cc1 (stereo unspecified),/,0.0%,-1.7,/,1.8%,/,/
COc1ccccc1C(=O)ON=C1c2ccccc2-c2ccccc21,10%,5.4%,-7.2,0.7,-17%,?,-22%
O=C(Cn1nc(Cc2cccnc2)c2ccccc2c1=O)N1CCN(c2ccccn2)CC1,?,1.5%,-8.5,6.0,-27%,22%,-2%
COc1ccc(CCN(C)C(=O)CN2C(=O)NC3(CCCc4ccccc43)C2=O)cc1OC (stereo unspecified),-13%,2.8%,-3.6,/,1.7%,/,-13%
Clc1ccc(CSc2nnc(-c3c[nH]c4ccccc34)o2)cc1,-6%,6.4%[38.3 µM],-0.7,4.0,-4.1%,-8%,-20%
O=C(N/C(=C\c1cccc([N+](=O)[O-])c1)C(=O)N1CCOCC1)c1ccco1,-6%[15.4 µM],-0.2%,1.0,0.1,-0.2%,25%,11%
CCCCc1ccc(NC(=S)N2CCN(c3ncccn3)CC2)cc1,-12%[15.4 µM],9.0%,-1.2,-8.9,/,-15%,-5%
CC(C)c1cc(C(N)=O)c(NC(=O)c2cccc(COc3ccc(Br)cc3)c2)s1,-1%,?,-3.2,?,25µM*,31%[activator],-8%
Cc1ccccc1NC(=S)N(CCCN1CCOCC1)Cc1cccs1,25%[15.4 µM],-0.5%,-2.4,3.1,28µM*,17%,-7%
CC1OC(Oc2c(-c3cc(O)c(O)c(O)c3)oc3cc(O)cc(O)c3c2=O)C(O)C(O)C1O (stereo unspecified),/,-0.1%,2.1,26,-1.6%,7.9µM*,-2%
O=C(OCC12CC3CC(CC(C3)C1)C2)c1ccc(NCc2cc(O)ccc2O)cc1,2%,-1.7%,?,/,-3.3%,/,-12%
O=[N+]([O-])c1ncn(Cc2c(Cl)cccc2Cl)n1,1%,2.8%,-2.4,3.4,0.6%,0%,8%
CC(=O)Nc1cccc(N(C)S(C)(=O)=O)c1,-50%[inhibitor],2.3%[38.3 µM],0.3,6.1,-2.0%,11%,15%
O=S(=O)(NCc1cccnc1)c1cccc2cccnc12,?,-1.7%[38.3 µM],-1.7,2.6,-0.6%,12%,12%
O=C(O)CC1(CC(=O)NCc2cccc(Cl)c2)CCCCC1,?,0.0%,-4.9,-3.6,0.4%,3%,0%
Cc1ccc(-c2nc3cc(NC(=O)C(C)C)ccc3o2)cc1,21%,7.1%,-0.7,1.5,14µM*,-1%,-7%[15.4 µM]
COc1ccc(S(=O)(=O)N2CCOCC2)c2ccccc12,-5%,1.5%,-3.9,3.4,-2.8%,-5%,-10%
Cc1ccc(S(=O)(=O)N[C@H](C(=O)OCC(=O)NC(=O)c2cccn2C)C(C)C)cc1,-23%,0.7%,2.8,/,/,/,-7%
COc1ccc(C(=O)NNS(=O)(=O)c2ccccc2)cc1OC,-1%,0.9%,-5.6,-1.0,2.7%,6%,8%
CN(C)CCn1c(=O)n(-c2ccc(F)cc2)c(=O)c2c3c(sc21)CCCCC3,-1%[15.4 µM],-0.5%,-2.3,7.1,/,12%,-19%
COc1ccc(C2=NN(S(C)(=O)=O)C(c3cccs3)C2)cc1 (stereo unspecified),0%[15.4 µM],0.0%,-3.6,?,/,-17%,-1%
CCC1([N+](=O)[O-])COC(c2ccc(Cl)cc2)OC1 (stereo unspecified),8%,2.6%,-1.2,/,/,/,4%
Cc1ccc(Sc2cc(C(=O)c3ccccc3C(=O)O)ccc2[N+](=O)[O-])cc1,20%,-0.5%,11,1.9,0.0%,8%,-15%
O=C(NCCc1nnc2ccc(SCC(=O)N3CCCC3)nn12)c1ccccc1,?,-1.0%,-3.2,0.9,-17%,7%,13%
OCC(O)C(O)C(O)C(O)C(O)CO (stereo unspecified),/,-0.5%,/,-0.4,/,10%,/
O=c1cc(COc2ncnc3c(Cl)cc(Cl)cc23)nc2sccn12,3%,0.0%,-1.2,-1.4,-8.0%,14%,8%
O=C1Nc2cc(C(=O)NCCN3CCCCCC3)ccc2S/C1=C\c1ccccc1,-40%[inhibitor],-0.7%,14,/,2.5%,40µM*,1%
COc1cc(OC)cc(-c2cc3ccc(F)cc3cn2)c1,/,1.6%,4.1,/,?,/,-15%
Cc1ccc(O)c(NC(=O)C2=CC(c3cccs3)=NS(=O)(=O)N2C)c1,?,5.0%&-2.5%,-0.9,0.5,1.7%&-3.6%,16%,-16%
O=C(NCCc1cccs1)C1CC(c2c(Cl)cccc2Cl)=NO1 (stereo unspecified),-22%,-0.5%,-5.8,-0.7,0.9%,-9%,2%
CN(CC(=O)Nc1ccc(F)cc1)C(=O)Cc1ccsc1,24%,1.0%,5.5,/,1.0%,/,-1%
COc1ccccc1C(=O)NC(=O)COC(=O)Cn1[nH]c(=O)c2ccccc2c1=O,-6%,2.6%,-6.8,/,-15%,/,-6%
COCC(=O)NNC(=O)c1ccc(OC)cc1,-1%[15.4 µM],2.6%,-0.8,0.0,/,3%,15%
CN1CCN(c2ccc([N+](=O)[O-])cc2NC(=O)c2ccccc2Cl)CC1,11%,-5.0%[38.3 µM],-3.6,3.2,-1.4%,9%,10%
O=C(NCc1ccccn1)Nc1cccc(NC(=O)NCc2ccccn2)c1,-11%,-0.1%,-1.1,-3.0,-8.9%,5%,5%
CC(NC(=O)C1CCC(=O)N1Cc1ccc(F)cc1)c1ccc2c(c1)OCCO2 (stereo unspecified),12%,2.5%,-0.4,0.6,1.1%,8%,-3%
Cc1cccc2nc(CSc3nnc4ccccn34)cn12,8%,0.1%,-2.0,4.7,1.2%,1%,1%
COc1nc(OC)nc(N2CCC(C(=O)NCc3ccco3)CC2)n1,?,36%[38.3 µM],-3.6,-0.1,0.3%,13%,-5%
COC(=O)c1cc(OC)c(OC)cc1NC(=S)N1CCCC1,-3%[15.4 µM],1.7%,-2.6,5.3,-1.9%,21%,1%
C1=CCN(c2nc(N3CCOCC3)nc(N3CCCc4ccccc43)n2)CC1,?,1.3%,-3.7,/,-7.1%,/,/
O=C(O)CCc1nc(-c2ccccc2Cl)no1,?,-2.8%,-0.6,2.0,-0.4%,8%,-12%
OC[C@@H]1CN(Cc2ccc(Cl)cc2)C[C@H](n2cnc3c(NC4CCC4)ncnc32)O1,/,1.8%,-2.0,/,0.1%,/,/
Nc1cc(=O)[nH]c(SCC(=O)Nc2cc([N+](=O)[O-])ccc2Cl)n1,4%[15.4 µM],0.7%,-2.7,-0.3,/,12%,-3%
O=C1CCCc2ccccc2N1,-4%,-1.0%,8.2,-1.8,0.4%,-21%,2%

# Given with bars between the fields: entries from further up
canonical_smiles | gsp agonist | PINK1 expr mod | D2 ag | Menin MLL FP FL | ClpP mod | Sfp PPTase inh | gsp antag
CN1CCN(c2ccc([N+](=O)[O-])cc2NC(=O)c2ccccc2Cl)CC1 | 11% | -5.0%[38.3 µM] | -3.6 | 3.2 | -1.4% | 9% | 10%
O=C(NCc1ccccn1)Nc1cccc(NC(=O)NCc2ccccn2)c1 | -11% | -0.1% | -1.1 | -3.0 | -8.9% | 5% | 5%

# From PubChem BioAssay
